SARS PLP yeast: blocks SARS-CoV papain-like protease in a yeast assay. hit rate 0.19% among 330,000. Potency, µM (titrated, usually from 32.9 µM), without a hit: top-dose activity, positive = growth rescue. S. cerevisiae expressing SARS-CoV PLpro, growth rescue; control for the full effect not named in the record. AID 485353; active means well fitted rising curve with a large enough effect; inconclusive means small, poorly fitted or top-dose-only effect; inactive means no such curve, though single readings can be large or run the other way; further: 0% is about no effect; nearly all actives have a fitted effect of over 55% in size; growth read by luminescence after 48 h
RE007 growth inh: less growth of the S. pombe RE007 Vpr strain | S. pombe RE007 Vpr strain, BacTiter-Glo ATP luminescence, 24 h; control for the full effect not named in the record | Potency, µM (doses to about 92.2 µM), for the others: at the highest dose activity change, negative = less growth | hit rate 0.21% among 360,000; active = well fitted falling curve with a large enough effect; inconclusive = small, poorly fitted or top-dose-only effect; inactive = no such curve, though single readings can be large or run the other way;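 further: on the % scale 0 is the no-effect control and ±100 the full control effect; nearly all actives have a fitted effect of over 50% in size; the assay follows cell death caused by Vpr and the record does not say whether a fall means rescue or toxicity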
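Fission yeast RE007 carrying one integrated HIV-1 vpr copy, seeded at OD 0.01 in PMG+AL medium with 23 nL pinned compound. Grown 24 h at 30 degrees; viability read by BacTiter-Glo luminescence after 5 min.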
2A StopGo: lowers the luciferase signal of an FMDV 2A StopGo reporter; human cells with a luciferase reporter of 2A StopGo recoding; control for the full effect not named in the record; Potency, µM (top dose mostly 57.9 µM), without a hit: at the highest dose signal change, negative = less light; hit rate 1.2% among 410,000; active = well fitted falling curve with a large enough effect; inconclusive = small, poorly fitted or top-dose-only effect; inactive = no such curve, though single readings can be large or run the other way; tested in HEK293T cells; further: on the % scale 0 is the no-effect control and ±100 the full control effect; nearly all actives have a fitted effect of over 45% in size; luciferase light after 4 h
* = called active by the depositor; ? = inconclusive; [ ] = another dose, or the depositor's remark. Potency means the concentration at half of the fitted maximal effect. An excerpt; the hit share may differ from the screen's.

SMILES	SARS PLP yeast	RE007 growth inh	2A StopGo
Nn1c(SCC(=O)Nc2nccs2)nnc1-c1cccnc1	-7%	-8%	-24%
COc1ccc(C2=NN(C(=O)CSc3nccn3C)C(c3ccco3)C2)cc1 (stereo not drawn)	-2%	-4%	-17%
COC(=O)[C@H](Cc1ccccc1)NC(=O)Cn1ccc(NC(=O)OCc2ccccc2)nc1=O	-8%	-8%	-1%
CN(CC(=O)Nc1ccccc1Cl)C(=O)c1ccc(N2CCCCCC2)c([N+](=O)[O-])c1	1%	-4%	-25%
O=C(CSc1nnc(NC(=O)c2ccco2)s1)Nc1ccccc1	2%	-6%	52%[activator]
COc1ccc(S(=O)(=O)Nc2ccc3c(c2)C(=O)N([C@H](C)CO)C[C@H](C)[C@@H](CN(C)C(=O)Nc2ccccc2)O3)cc1	-3%	-1%	0%
CC(=O)N/C(=C\c1ccc(C)cc1)C(=O)O	5%	4%	-16%
Cc1ccc(S(=O)(=O)N2CCCCC2)cc1NC(=O)Cc1cccs1	0%	2%	3%
Cc1c(NC(=O)COC(=O)/C=C/c2cccc(Br)c2)c(=O)n(-c2ccccc2)n1C	-4%	-2%	-2%
C=CCn1c(SCC(=O)c2ccc(O)c(O)c2)nnc1-c1cccc(OC)c1	1%	-15%	-28%
O=S(=O)(c1ccccc1)c1cnc2ccccc2c1	1%	3%	14%
CC1CCN(C(=O)COC(=O)Cn2cnc3c2c(=O)n(C)c(=O)n3C)CC1	-1%	-8%	-2%
C=C(C(=O)Nc1ccccc1)c1ccc(C)cc1	2%	-6%	12%
CCC1Nc2ncnc(N3CCOCC3)c2N(Cc2ccc(Cl)cc2)C1=O (stereo not drawn)	-3%	3%	-11%
COc1cccc(C(=O)N(C)Cc2c(C)nn(C3CCS(=O)(=O)C3)c2C)c1 (stereo not drawn)	0%	10%	?
O=C1N=c2ccccc2=C1c1sc(=S)n(NC(=O)c2cccc(O)c2)c1O	1%	-9%	-27%
CCOC(CNC(=O)c1ccc2c(c1)ncn2-c1ccc(F)c(F)c1)OCC	-1%	-6%	-5%
CSCCC(NC(=O)c1ccccc1)C(=O)N1CCN(C(=O)c2ccccc2)CC1 (stereo not drawn)	2%	1%	-14%
CCN(C(=O)COC(=O)c1ccc(=O)n(Cc2ccccc2)n1)C1CCCCC1	-16%	-6%	-6%
CCN(Cc1nc2ccccc2c(=O)[nH]1)C(=O)COc1ccccc1-c1ccccc1	-5%[6.58 µM]	4%	?
COc1cc(C(=O)NNC(=O)C2CSC3(C)CCC(=O)N23)cc(OC)c1OC (stereo not drawn)	3%	0%	-3%
CC(=O)c1cccc(OCC(=O)N(C)CC(=O)NCc2ccco2)c1	4%	-26%	-16%
COc1ccc(N2C(=O)CC(c3ccccc3)CC2=O)cc1	4%	-8%	1%
CC(=O)Nc1ccc(S(=O)(=O)NCCC(=O)NCCCc2ccccc2)cc1	2%	-10%	-5%
O=c1oc(C2(O)CCCCC2)cc2ccc(/C=C/c3ccc(F)cc3)cc12	1%	-3%	?

Compound profiles, as listed above:
Results for CC1CCN(C(=O)COC(=O)Cn2cnc3c2c(=O)n(C)c(=O)n3C)CC1 → SARS PLP yeast = -1%; RE007 growth inh = -8%; 2A StopGo = -2%
Results for C=C(C(=O)Nc1ccccc1)c1ccc(C)cc1 → SARS PLP yeast = 2%; RE007 growth inh = -6%; 2A StopGo = 12%
Results for Cc1ccc(S(=O)(=O)N2CCCCC2)cc1NC(=O)Cc1cccs1 → SARS PLP yeast = 0%; RE007 growth inh = 2%; 2A StopGo = 3%

Going on with the list:
SMILES	SARS PLP yeast	RE007 growth inh	2A StopGo
COC(=O)[C@]1(C)N[C@H](CN(C)C(=O)Nc2ccc(OC)cc2)[C@@H]2C(=O)N(C)C(=O)[C@@H]21	2%	-13%	-14%
CC1CCCC(NC(=O)CN2CCN(S(=O)(=O)c3cccs3)CC2)C1C (stereo not drawn)	2%	-4%	-5%
CC(=O)c1cccc(NC(=O)C(C)OC(=O)CN2C(=O)NC(C)(C)C2=O)c1 (stereo not drawn)	3%	0%	-14%
CC[C@@H]1C/C=C\Cc2ccccc2[C@@H](C(=O)C[C@@H](O)CC(C)=O)OC1=O	1%	7%	-16%
N#Cc1ccc(NC(=O)COC(=O)c2ccc(F)c(S(=O)(=O)N3CCOCC3)c2)cc1	-4%	-10%	-15%
O=C(/C=C/c1ccc(OC(F)F)cc1)OCC(=O)N1CCC(c2ccccc2)=N1	8%	-15%	-28%
COc1ccc(NC(=O)COC(=O)CN2C(=O)NC(C)(C)C2=O)cc1	2%	8%	-7%
O=C(c1ccccc1O)N1N=C(c2ccccc2)CC1(O)C(F)(F)F (stereo not drawn)	22%	-26%	-11%
CN(C)CCCN(C(=O)COc1ccccc1)c1nc2ccc(F)cc2s1	1%	4%	-7%
COc1cc(OC)cc(-c2cc3cc4c(cc3cn2)OCO4)c1	-1%	?	5%
CC(C)Oc1ccc(S(=O)(=O)N2CCCCC2)cc1NC(=O)CN1CCCC1c1cccs1 (stereo not drawn)	-5%	-2%	-29%
COC(=O)[C@@H](CC(C)C)N(Cc1ccccc1)S(=O)(=O)N(Cc1ccccc1)[C@@H](CC(C)C)C(=O)OC	1%	20%	?
CCN(c1ccccc1)S(=O)(=O)c1ccc(OC)c(NC(=O)C2CC2)c1	-9%	1%	-8%
CC(C)N(Cc1nnc(-c2ccc(Cl)cc2)o1)C(=O)c1cc2ccccc2o1	2%	-9%	26%
COc1cc(C)c(C(=O)Oc2cc(C)c(C(=O)O)c(O)c2C)c(O)c1C(=O)O	1%	-17%	-17%
CSc1ccccc1NC(=O)CN(C)C(=O)COc1cccc2cccnc12	9%	?	-23%
CCCn1c(N)c(C(=O)CSc2n[nH]c(-c3ccccc3F)n2)c(=O)n(C)c1=O	1%	-10%	?
Cc1cccc(NC(=S)NCCN(C2CCCCC2)C2CCCC2)c1	-3%	-22%	-11%
COc1ccc(CCNC(=O)CSc2n[nH]c(C)c2[N+](=O)[O-])cc1OC	0%	11%	-3%
Cc1cc(NC(=O)CSc2nncn2-c2ccccc2)no1	1%	-7%	-7%
c1coc(CSSCc2ccco2)c1	-6%	5%	-18%
CC(Oc1ccccc1)C(=O)N=Nc1c(O)[nH]c2ccc([N+](=O)[O-])cc12 (stereo not drawn)	0%	2%	-14%
Cc1ccc(-c2c[nH]c(=S)n2-c2ccccc2)cc1	8%	2%	-11%
Cc1c[n+]([O-])ccc1Oc1ccc([N+](=O)[O-])cc1	-4%	7%	-6%
Cn1c(SCC(=O)NCC2CCCO2)nnc1-c1ccco1 (stereo not drawn)	4%	4%	-3%
The list goes on.
SMILES	SARS PLP yeast	RE007 growth inh	2A StopGo
COc1cc(-c2noc(C)c2C(=O)NCC[C@@H]2CCCN2C)cc(OC)c1OC	-1%	-17%	-17%
Cc1cccc(C(C)C)c1NC(=O)COC(=O)c1cc2ccccc2oc1=O	-4%	13%	-10%
CC(Sc1ccc(S(=O)(=O)N(C)C)cn1)C(=O)NC1CCCC1 (stereo not drawn)	0%	5%	-27%
COc1ccccc1N1CCN(C(=O)c2cn(Cc3ccccc3)nc2-c2cccnc2)CC1	-5%	-6%	31%[activator]
CCOc1ccc(CN2C(=O)c3ccccc3C2=O)cc1C(=O)NC1CC(C)(C)NC(C)(C)C1	0%	-3%	-5%
Cc1cc(NC(=O)CSc2nnc(-c3cccc(F)c3)n2N)no1	2%	-10%	-2%
COc1cc([C@@H]2CC=C(C(=O)O)CN2S(=O)(=O)c2ccc(C)cc2)cc(OC)c1OC	0%	11%	-10%
COc1ccc(C(=O)Nc2cccc(S(=O)(=O)NC3=NCCC3)c2)cc1OC	1%	2%	7%
Fc1ccc2cc(-c3ccsc3)ncc2c1	1%	0%	62%[activator]
O=C(O)C1CCCCC1C(=O)Nc1cccc(Br)c1 (stereo not drawn)	2%	3%	6%
O=C(Nc1ccc(F)cc1F)c1cc(=O)n(-c2ccccc2)c(=O)[nH]1	0%	0%	3%
Cc1ccc([C@@H]2CC=C(C(=O)O)[C@H](c3ccccc3)N2S(=O)(=O)c2ccccc2C)cc1	0%	-5%	-4%
CN(C)C1=NC[C@H](Cc2ccccc2)N1CC1CCCCCC1	-5%	9%	-19%
CC(C)NC(=O)N(C)C[C@@H]1Oc2c(NC(=O)Nc3ccccc3)cccc2C(=O)N([C@H](C)CO)C[C@H]1C	-4%	-3%	-5%
O=C(Cc1cccc(NC(=O)C2CCN(C(=O)CCc3ccccc3)CC2)c1)Nc1cccc(C(=O)N2CCCC2)c1	-7%	8%	0%
O=C(COC(=O)c1cccc(F)c1)NC(=O)NC1CCCC1	-4%	10%	-6%
O=C(Nc1cccc(C(F)(F)F)c1)C1CC(=O)N(CCc2ccccc2)C1 (stereo not drawn)	-14%	2%	7%
Cc1[nH]c2ccccc2c1SCc1ccccc1	-3%	-11%	-19%
COc1ccc(NC(=O)C2CCN(S(=O)(=O)c3cccs3)CC2)cc1OC	5%	15%	?
COc1cc(NC(=S)NCCc2ccccc2)c(OC)cc1NC(=O)CC(C)C	1%	-2%	5%
O=S(=O)(NCCOc1ccccc1F)c1cccc(Br)c1	-7%	6%	28%
O=C(NCc1ccncc1)c1cc(C(=O)C2CC2)c[nH]1	3%	0%	-9%
Cc1nn(CC(=O)N(C)C)c(C)c1S(=O)(=O)N1CCOCC1	1%[6.58 µM]	11%	1%
O=S1(=O)c2ccccc2OC(COCc2ccccc2)CN1Cc1ccccc1 (stereo not drawn)	6%	-5%	-28%
C[C@H](CO)N1C[C@H](C)[C@@H](CN(C)Cc2ccc(Oc3ccccc3)cc2)Oc2ccc(NC(=O)Cn3cnnn3)cc2C1=O	-6%	-6%	-9%
Next section.
SMILES	SARS PLP yeast	RE007 growth inh	2A StopGo
CSCCC(NC(=O)c1ccccc1Cl)C(=O)N1CCCCC1 (stereo not drawn)	2%	-9%	-14%
Cc1ccccc1-c1cc(C(=O)NCc2cccc(C(F)(F)F)c2)n(CC2CC(c3cccnc3)=NO2)n1 (stereo not drawn)	-6%	6%	61%[activator]
NC(=O)C1CCN(C(=O)CSc2ccsc2[N+](=O)[O-])CC1	-1%	-19%	-5%
COCCNC(=O)N1[C@H]2CC[C@@H]1C(C(=O)OC)=C(c1ccc(OC)c(OC)c1)C2	-3%	8%	-13%
COC(=O)C1=C(c2ccc(C(C)=O)cc2)C[C@@H]2CC[C@H]1N2C(=O)NCC1CC1	2%	14%	-13%
CC(C)N(C(=O)[C@H]1C[C@H](CC(=O)NCCN2CCOCC2)C(=O)N2CCc3c([nH]c4cc(-c5ccco5)ccc34)[C@]12C)C(C)C	-10%	7%	-25%
Nc1c(Cl)cc(C2=NCCn3nc4cc([N+](=O)[O-])ccc4c32)cc1Cl	-5%	2%	?
CC(C)(C)OC(=O)CNC(=O)c1[nH]cnc1C(=O)NC1CCNCC1	-1%	-7%	-23%
COC(=O)[C@H](C)N(Cc1ccc(Cl)c(Cl)c1)S(=O)(=O)CCN1CCCC1	2%	-2%	?
C/C(=N\Nc1ccc([N+](=O)[O-])cc1[N+](=O)[O-])C(C)C(C)C (stereo not drawn)	3%	-17%	?
O=C(CCN1C(=O)C2CC=CCC2C1=O)Nc1nc(-c2ccc(F)c(F)c2)cs1 (stereo not drawn)	1%	10%	?
O=C1CCN(S(=O)(=O)c2cc(C(F)(F)F)ccc2Cl)CC1	-1%	-1%	-6%
CC(C)NC(=O)N(C)C[C@H]1Oc2ccc(NS(=O)(=O)c3ccc(Cl)cc3)cc2CC(=O)N([C@@H](C)CO)C[C@@H]1C	5%	10%	-17%
COc1ccc(-c2oc(=O)c3cc(OC)c(OC)cc3c2/C=C/c2cccc([N+](=O)[O-])c2)cc1	-1%	3%	-11%
CCCNC(=O)C(Cc1cccc(C#N)c1)NC(=O)c1cccc([N+](=O)[O-])c1 (stereo not drawn)	1%	0%	-8%
Cc1ccsc1CN(C)C(=O)CN1C(=O)NC2(CCCCC2C)C1=O (stereo not drawn)	4%	6%	-14%
CCOc1ccc(CC2NCCc3cc(OCC)c(OCC)cc32)cc1OCC (stereo not drawn)	0%	-3%	?
COc1ccc(N(C(C)C(=O)N/N=C/c2cccnc2)S(C)(=O)=O)cc1 (stereo not drawn)	1%	-5%	-24%
COC(CNC(=O)Cc1c(C)nc2c(-c3ccccc3)c(C)nn2c1C)OC	0%	-3%	4%
N#CC1(NC(=O)COC(=O)C2=COCCO2)CCCCC1	0%	9%	11%

In another format: entries from further up.
The line under a structure holds: SARS PLP yeast | RE007 growth inh | 2A StopGo
> COCCNC(=O)N1[C@H]2CC[C@@H]1C(C(=O)OC)=C(c1ccc(OC)c(OC)c1)C2
→ -3% | 8% | -13%
> CSCCC(NC(=O)c1ccccc1Cl)C(=O)N1CCCCC1 (stereo not drawn)
→ 2% | -9% | -14%
> CCOc1ccc(CC2NCCc3cc(OCC)c(OCC)cc32)cc1OCC (stereo not drawn)
→ 0% | -3% | ?
> CC(C)NC(=O)N(C)C[C@H]1Oc2ccc(NS(=O)(=O)c3ccc(Cl)cc3)cc2CC(=O)N([C@@H](C)CO)C[C@@H]1C
→ 5% | 10% | -17%

Compound activity (PubChem)
